TRPML1 ag: human mucolipin-1 channel agonism; Q9GZU1; TRPML1-expressing cells, Ca2+ dye fluorescence, FDSS; host cell line not named in the record; reference of the full effect not given here; activation, % (concentration not given with the values); 410,000 tested, 0.12% active; AID 624414; in the data active = activation above about 50%; inconclusive = about 30% to 50%; inactive = below about 30%; note: 0% is about no effect; the text of the record puts the active cut at 80%
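Kinetic FDSS Ca2+ read in Tet-induced TRPML1-DL cells (ABD Ca8 dye plus quencher, 45-90 min RT loading): baseline, then compound, then 110 s agonist window; EC80 agonist 54-4 at 4uM final added afterwards for a 110 s antagonist window.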
D2 potentiator: positive allosteric modulators of human D2 dopamine receptor; potentiation, % (no concentration beside the values); 360,000 tested, 0.23% active; P14416; AID 624464; DiscoveRx D2 beta-arrestin cells, luminescence, 90 min; 100% = 57 uM dopamine signal; active = potentiation of 50% or more; inconclusive = 30% to 50%; inactive = 30% or less;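 note: compound concentration not given in the record; tested on top of an EC20 dose of dopamine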
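PathHunter beta-arrestin assay in DiscoveRx D2 cells. Compounds were added with an EC20 of dopamine (50 nM final) for 90 min at 37 deg C. Luminescence was read 1 h after detection reagent, with 57 uM dopamine as the EC100 control.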
Six1-Eya2 blk: Six1/Eya2 interaction inhibition | Q15475+O00167 | activity change, % (concentration not given with the values) | AlphaScreen GST-Six1/His-Eya2 binding, biochemical; active compounds read low; control for the full effect not named in the record | 360,000 tested, 0.56% active; in the data active = activity change below about -65%; inconclusive = about -30% to -65%; inactive = above about -30%; note: % is set by controls: 0 for no effect and ±100 for the full control effect
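AlphaScreen luminescence read after one hour at 37 °C in darkness. Pin-transferred compounds met GST-Six1 and His-Eya2 protein (5X stock 250 nM/500 nM) plus glutathione donor and Ni-chelate acceptor beads (5X, 50 ug/mL).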
TRPV1 potentiator: enhances activation of the human vanilloid receptor TRPV1; 320,000 tested, 0.02% active; potentiation, % at 8.33 µM; Q8NER1; TRPV1-expressing cells, Fluo-8 calcium influx, capsaicin EC20 potentiation; host cell line not named in the record; control for the full effect not named in the record; active means potentiation above 80%; inconclusive means 30% to 80%; inactive means below 30%; note: 0% is about no effect
Target sequence (Q8NER1 whole entry, looked up): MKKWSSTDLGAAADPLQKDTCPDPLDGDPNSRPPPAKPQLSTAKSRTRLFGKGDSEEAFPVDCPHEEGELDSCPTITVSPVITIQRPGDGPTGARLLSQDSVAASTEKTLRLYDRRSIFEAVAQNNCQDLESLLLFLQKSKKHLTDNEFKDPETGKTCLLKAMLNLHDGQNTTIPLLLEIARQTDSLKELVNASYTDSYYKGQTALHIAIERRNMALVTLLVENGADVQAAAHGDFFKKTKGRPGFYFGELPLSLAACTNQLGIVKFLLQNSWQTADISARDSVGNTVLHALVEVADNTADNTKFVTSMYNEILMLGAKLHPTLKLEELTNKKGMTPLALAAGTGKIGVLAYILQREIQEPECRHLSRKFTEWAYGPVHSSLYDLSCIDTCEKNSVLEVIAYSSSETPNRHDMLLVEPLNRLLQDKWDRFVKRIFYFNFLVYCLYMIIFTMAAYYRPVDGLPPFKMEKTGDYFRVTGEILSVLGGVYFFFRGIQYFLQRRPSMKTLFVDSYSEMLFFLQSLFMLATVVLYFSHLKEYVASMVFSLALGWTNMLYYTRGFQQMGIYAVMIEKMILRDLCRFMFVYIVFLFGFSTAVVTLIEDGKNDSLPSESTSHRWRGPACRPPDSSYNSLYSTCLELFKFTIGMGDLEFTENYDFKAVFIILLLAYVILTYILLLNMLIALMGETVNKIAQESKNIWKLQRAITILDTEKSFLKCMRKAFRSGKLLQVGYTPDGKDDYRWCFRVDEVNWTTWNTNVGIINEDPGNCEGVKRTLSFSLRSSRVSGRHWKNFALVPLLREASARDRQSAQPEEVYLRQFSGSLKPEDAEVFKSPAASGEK
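TRPV1-expressing cells were cultured overnight at 35.5C and loaded with Fluo-8 calcium dye for 40 to 90 min at room temperature. After a 10 s baseline, compound was added and calcium influx was read kinetically for 3 min (ex 480/em 520 nm).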
TRPML1 inh: human mucolipin-1 channel inhibition; 390,000 tested, 0.02% active; activity change, negative = inhibition, % (concentration not given with the values); Q9GZU1; TRPML1-inducible cells, Ca2+ dye fluorescence, FDSS; active compounds read low; inhibition of EC80 agonist-evoked calcium signal; in the data active means activity change below about -50%; inconclusive means about -30% to -50%; inactive means above about -30%;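 note: stimulus is agonist 54-4 at its EC80 concentration; % is set by controls: 0 for no effect and ±100 for the full control effect; the text of the record puts the active cut at -80%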
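TRPML1-DL cells, Tet-induced overnight (~16 h, 37 °C) at 1,500 cells/well, were loaded with Ca8 no-wash dye plus quencher for 45-90 min at room temperature. Compounds were pinned during FDSS kinetic reading; agonist 54-4 at EC80 (4 uM final) then added.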
CtBP-E1A inh: blocks the CtBP interaction with E1A; 340,000 tested, 0.49% active; AlphaScreen GST-E1A/His-CtBP binding, 1536-well; active compounds read low; control for the full effect not named in the record; activity change, % (concentration not given with the values); in the data active means activity change below about -65%; inconclusive means about -30% to -65%; inactive means above about -30%; note: % is set by controls: 0 for no effect and ±100 for the full control effect
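AlphaScreen with 125 nM GST-E1A and 125 nM His-CtBP (5X stocks) in Tris pH 8.0, 300 mM NaCl, BSA, Tween 20, TCEP. Compounds preincubated 2 h at 37 deg C, then glutathione donor/nickel acceptor beads added for 1 h at 37 deg C in dark.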
Numbers without * were called inactive; & = joins results of further samples.

CC(=O)N/C(=C\c1ccccc1)C(=O)OCC(=O)c1ccc(F)cc1 was read as TRPML1 ag 0.4, D2 potentiator -3.1, Six1-Eya2 blk 8.6, TRPV1 potentiator 4.8, TRPML1 inh -11.5 and CtBP-E1A inh 2.0.
For O=C1Nc2ccc(Br)cc2/C1=N/N=C/C1=C(N2CCOCC2)C(=C\c2ccccc2)/CC1 the results were TRPML1 ag 1.6, D2 potentiator -26.8, Six1-Eya2 blk inconclusive, TRPV1 potentiator -0.7, TRPML1 inh -10.4 and CtBP-E1A inh -29.3.
`Cc1cc(C)c2oc(C(=O)Nc3ccc(S(=O)(=O)N4CCC(C)CC4)cc3)cc(=O)c2c1` gave TRPML1 ag 3.2&0.5, D2 potentiator -4.9, Six1-Eya2 blk 6.9, TRPV1 potentiator 0.2 and TRPML1 inh 5.3&-11.0.
For CSc1cccc(NC(=O)COC(=O)C2(c3ccccc3)CC2)c1 the results were TRPML1 ag 4.4, D2 potentiator -13.0, Six1-Eya2 blk 4.2, TRPML1 inh 18.0 and CtBP-E1A inh 6.0.
Screening O=C(c1ccc(Sc2cccc(Cl)c2)c([N+](=O)[O-])c1)N1CCN(c2ccccn2)CC1 returned TRPML1 ag 0.5, D2 potentiator -4.4, Six1-Eya2 blk -23.8, TRPV1 potentiator 11.1, TRPML1 inh 17.8 and CtBP-E1A inh -20.6.
For CCOC(=O)c1sc(NC(=O)c2ccc(OC(C)=O)cc2)nc1C the results were TRPML1 ag 0.0, D2 potentiator -41.4, Six1-Eya2 blk 19.2, TRPV1 potentiator 20.3, TRPML1 inh 5.9 and CtBP-E1A inh -0.2.
`COC(=O)c1c(-c2ccco2)csc1NC(=O)C1CC=CCC1C(=O)O` (centres undefined) gave TRPML1 ag 1.1, D2 potentiator -3.1, Six1-Eya2 blk 0.3, TRPV1 potentiator 5.1, TRPML1 inh -10.0 and CtBP-E1A inh -3.6.
`O=C(Nc1ccc(C(F)(F)F)cc1[N+](=O)[O-])O[C@H]1[C@H](Cc2ccccc2)NS(=O)(=O)[C@H]2C[C@@H]3C=C[C@]12O3` gave TRPML1 ag -0.6&-0.7, D2 potentiator 11.4, Six1-Eya2 blk -8.8, TRPV1 potentiator -2.3, TRPML1 inh 9.1 and CtBP-E1A inh -9.5.
For Cc1nc(SC(C)C)[nH]c(=O)c1Cc1ccccc1 the results were TRPML1 ag 0.1, D2 potentiator 4.5, Six1-Eya2 blk 1.8, TRPV1 potentiator 11.1, TRPML1 inh -6.9 and CtBP-E1A inh 7.4.
For O=C(CN(Cc1ccccc1)C(=O)c1cc2c(s1)CCC2)NCc1cccs1 the results were TRPML1 ag -0.3, D2 potentiator -14.7, Six1-Eya2 blk -3.0, TRPV1 potentiator -18.6, TRPML1 inh -8.4 and CtBP-E1A inh 1.4.
For Cc1ccc(OCC(=O)NNC(=O)c2ccc(NC(=O)C3CC3)cc2)c(C)c1 the results were TRPML1 ag -0.5, D2 potentiator -7.2, Six1-Eya2 blk -1.9, TRPV1 potentiator -2.1, TRPML1 inh 11.7 and CtBP-E1A inh 3.7.
`CCC(=O)N1C(C(=O)O)CSC1c1ccc(OC)cc1` (centres undefined) gave TRPML1 ag -0.2, D2 potentiator 0.7, Six1-Eya2 blk 9.5, TRPV1 potentiator 11.1, TRPML1 inh 10.9 and CtBP-E1A inh 1.4.
For Cc1onc(-c2ccccc2)c1C(=O)Nc1ccccc1C#N the results were TRPML1 ag -0.1&0.0, D2 potentiator -10.2&-3.9, Six1-Eya2 blk 0.4&27.1, TRPML1 inh 1.5&-12.9 and CtBP-E1A inh 3.6&9.5.
For CCOC(=O)c1nnn(-c2nonc2N)c1-c1cccs1 the results were TRPML1 ag 0.8, D2 potentiator -15.2, Six1-Eya2 blk 14.8, TRPV1 potentiator -0.7, TRPML1 inh 4.5 and CtBP-E1A inh 8.3.
`CC(=S)c1c(C)cc2cc(C)ccn12` gave TRPML1 ag -0.4, D2 potentiator -4.1, Six1-Eya2 blk inconclusive, TRPV1 potentiator -7.0, TRPML1 inh -4.2 and CtBP-E1A inh inconclusive.
For CC1(C)C2CC[C@]1(C)C(=O)N(CCCCN1CCN(c3ccccn3)CC1)C2=O the results were TRPML1 ag 0.7, D2 potentiator inconclusive, Six1-Eya2 blk 3.2, TRPV1 potentiator 12.8, TRPML1 inh 6.0 and CtBP-E1A inh 2.7.
`Cc1nn(Cc2ccccc2)c(C)c1/C=N/NC(=O)c1ccccc1O` gave D2 potentiator 0.9, Six1-Eya2 blk -6.0, TRPV1 potentiator -5.6 and CtBP-E1A inh -24.8.
For CCCCNC(=S)N1CCN(Cc2ccc3c(c2)OCO3)CC1 the results were TRPML1 ag -0.7, D2 potentiator -16.3, Six1-Eya2 blk -3.5, TRPV1 potentiator -1.0, TRPML1 inh 7.8 and CtBP-E1A inh -22.4.
For CC(C)OC(=O)CSc1nc2cccnc2n1C1CCCCC1 the results were TRPML1 ag -0.3, D2 potentiator 0.6, Six1-Eya2 blk 7.3, TRPV1 potentiator 18.2, TRPML1 inh 5.9 and CtBP-E1A inh 9.0.
CN(C)CCN1CCN(C2CN(Cc3cn(Cc4ccc(F)cc4)nn3)S(=O)(=O)C2)CC1 (centres undefined) was read as TRPML1 ag -0.6, Six1-Eya2 blk 14.3 and CtBP-E1A inh 0.1.
`CC(C)Nc1nc(SC(C)C(=O)Nc2ccccc2)nc(N(C)C)n1` (centres undefined) gave TRPML1 ag -0.5, D2 potentiator -18.5, Six1-Eya2 blk 0.4, TRPV1 potentiator 24.4, TRPML1 inh 11.2 and CtBP-E1A inh 13.4.
`CCC(Oc1ccccc1)C(=O)OCC(=O)N(CC)c1c(N)n(Cc2ccccc2)c(=O)[nH]c1=O` (centres undefined) gave TRPML1 ag 0.4, D2 potentiator -1.7, Six1-Eya2 blk 0.4, TRPV1 potentiator -0.1, TRPML1 inh 1.0 and CtBP-E1A inh 5.0.
COc1ccc(C2/C=C\CN(S(=O)(=O)c3cccs3)CC(=O)N2Cc2ccc(F)cc2)cc1 (centres undefined) was read as TRPML1 ag 0.5&0.8, D2 potentiator -9.9, Six1-Eya2 blk -2.5, TRPV1 potentiator -5.6, TRPML1 inh -4.7&53.6 and CtBP-E1A inh -6.9.
`O=C(NCCc1ccncc1)Nc1ccccc1` gave TRPML1 ag 0.8, D2 potentiator -15.0, Six1-Eya2 blk 11.6, TRPV1 potentiator -2.3, TRPML1 inh 6.1 and CtBP-E1A inh -2.9.
Screening FC(F)(F)c1nc(-c2ccccc2)ncc1-c1nnnn1-c1ccccc1 returned TRPML1 ag 1.2, D2 potentiator 11.0, Six1-Eya2 blk 29.2, TRPV1 potentiator -1.2, TRPML1 inh -7.4 and CtBP-E1A inh 17.0.
`CC1(C(=O)Nc2ccccc2Cc2ccccc2)CCN1CCc1ccccc1` (centres undefined) gave TRPML1 ag 1.2, D2 potentiator -3.7, Six1-Eya2 blk 9.3 and CtBP-E1A inh 1.8.
For COc1ccc(C(O)(C2CCCCC2)C(CN2CCOCC2)c2ccccc2)cc1 (centres undefined) the results were TRPML1 ag -0.2, D2 potentiator -1.3, Six1-Eya2 blk -6.9, TRPV1 potentiator -10.4, TRPML1 inh 19.3 and CtBP-E1A inh -13.3.
CC(C)C(=O)NC(=S)Nc1ccccn1 was read as TRPML1 ag -1.0, D2 potentiator -13.2, Six1-Eya2 blk -1.6, TRPV1 potentiator -6.7, TRPML1 inh -2.4 and CtBP-E1A inh 1.8.
COc1ccccc1NC(=O)COC(=O)/C=C/c1cccs1 was read as TRPML1 ag 2.6, D2 potentiator 8.7, Six1-Eya2 blk 7.3, TRPML1 inh -12.1 and CtBP-E1A inh 3.7.
For N/N=C(/Cc1nc2ccccc2[nH]1)c1ccc([N+](=O)[O-])cc1 the results were TRPML1 ag 0.3, D2 potentiator 7.8, Six1-Eya2 blk -12.6, TRPV1 potentiator -21.7, TRPML1 inh 8.4 and CtBP-E1A inh -27.6.

Reprinted from the entries so far, five compounds:
`CC1(C(=O)Nc2ccccc2Cc2ccccc2)CCN1CCc1ccccc1` (centres undefined) gave TRPML1 ag 1.2, D2 potentiator -3.7, Six1-Eya2 blk 9.3 and CtBP-E1A inh 1.8.
For COc1ccc(C(O)(C2CCCCC2)C(CN2CCOCC2)c2ccccc2)cc1 (centres undefined) the results were TRPML1 ag -0.2, D2 potentiator -1.3, Six1-Eya2 blk -6.9, TRPV1 potentiator -10.4, TRPML1 inh 19.3 and CtBP-E1A inh -13.3.
CC(C)C(=O)NC(=S)Nc1ccccn1 was read as TRPML1 ag -1.0, D2 potentiator -13.2, Six1-Eya2 blk -1.6, TRPV1 potentiator -6.7, TRPML1 inh -2.4 and CtBP-E1A inh 1.8.
COc1ccccc1NC(=O)COC(=O)/C=C/c1cccs1 was read as TRPML1 ag 2.6, D2 potentiator 8.7, Six1-Eya2 blk 7.3, TRPML1 inh -12.1 and CtBP-E1A inh 3.7.
For N/N=C(/Cc1nc2ccccc2[nH]1)c1ccc([N+](=O)[O-])cc1 the results were TRPML1 ag 0.3, D2 potentiator 7.8, Six1-Eya2 blk -12.6, TRPV1 potentiator -21.7, TRPML1 inh 8.4 and CtBP-E1A inh -27.6.

Further results.
For COCCCN1C(=O)C(CC(=O)NC(c2ccccc2)c2ccccc2)CC(C(=O)N2CCOCC2)=C1C (centres undefined) the results were TRPML1 ag 0.0, D2 potentiator 4.7, Six1-Eya2 blk -4.3, TRPML1 inh -7.6 and CtBP-E1A inh 2.4.
Screening CC(O)(C#CCN1CCCCCC1)c1ccccc1 (centres undefined) returned TRPML1 ag -0.7, D2 potentiator -15.8, Six1-Eya2 blk -1.3, TRPV1 potentiator -5.1 and TRPML1 inh -6.9.
COc1ccc(OC)c(NC(=O)N2CCCC(C)C2)c1 (centres undefined) was read as TRPML1 ag -0.5, D2 potentiator -14.7, Six1-Eya2 blk -0.9, TRPV1 potentiator -8.2 and TRPML1 inh 9.1.
For COc1ccc(-c2nc3ccc(Br)cn3c2Cc2ccc(C)cc2)cc1OC the results were TRPML1 ag -0.3, D2 potentiator -0.7, Six1-Eya2 blk -0.1 and CtBP-E1A inh 0.2.
`CC1CN(c2nc3ccccn3c(=O)c2C=O)CC(C)O1` (centres undefined) gave TRPML1 ag -0.1, D2 potentiator -5.9, Six1-Eya2 blk 4.2, TRPV1 potentiator -5.6, TRPML1 inh -9.0 and CtBP-E1A inh -0.7.
For CCOC(=O)Cc1nnc(NC(=O)CSc2nnc3c(n2)[nH]c2ccccc23)s1 the results were TRPML1 ag 2.3, D2 potentiator -12.4, Six1-Eya2 blk inconclusive, TRPV1 potentiator 10.9, TRPML1 inh -5.2 and CtBP-E1A inh -29.2.
Cc1ccn(-c2ccc([N+](=O)[O-])cc2)n1 was read as TRPML1 ag 2.0, D2 potentiator -2.1, Six1-Eya2 blk -5.7, TRPV1 potentiator 7.5, TRPML1 inh -23.8 and CtBP-E1A inh -13.7.
COCCNC(=O)c1cccc2c1-c1ccccc1C2=O was read as TRPML1 ag -0.4, D2 potentiator -6.7, Six1-Eya2 blk 2.5, TRPV1 potentiator 11.2, TRPML1 inh 8.3 and CtBP-E1A inh 11.4.

Compound activity from PubChem BioAssay.
